LASV entry inh: blocks Lassa virus binding to or entry into cells | Lassa virus pseudotype entry inhibition, cell reporter; control for the full effect not named in the record | Potency, µM (doses to about 37.9 µM), without a hit: top-dose activity change, negative = inhibition, hits mostly inhibitors | actives 1.2% (n = 300,000); active means well fitted inhibition curve with a large enough effect; inconclusive means small, poorly fitted or top-dose-only effect, or effect the other way; inactive means flat fitted curve, though single readings scatter; tested in HEK293 cells; also: % is scaled to controls: 0 for no effect and ±100 for the full control effect; nearly all actives have a fitted effect of over 50% in size; luciferase read-out
RE007 growth inh: less growth of the S. pombe RE007 Vpr strain; S. pombe RE007 Vpr strain, BacTiter-Glo ATP luminescence, 24 h; control for the full effect not named in the record; Potency, µM (highest dose often 92.2 µM), without a hit: top-dose activity change, negative = less growth; actives 0.21% (n = 360,000); active = well fitted falling curve with a large enough effect; inconclusive = small, poorly fitted or top-dose-only effect; inactive = no such curve, though single readings can be large or run the other way;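 also: % is scaled to controls: 0 for no effect and ±100 for the full control effect; nearly all actives have a fitted effect of over 50% in size; the assay follows cell death caused by Vpr and the record does not say whether a fall means rescue or toxicity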
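Fission yeast RE007 carrying one integrated HIV-1 vpr copy, seeded at OD 0.01 in PMG+AL medium with 23 nL pinned compound. Grown 24 h at 30 degrees; viability read by BacTiter-Glo luminescence after 5 min.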
NS1 inh: inhibitors of influenza NS1 protein function | Potency, µM (doses to about 46.1 µM), for inactives: at the highest dose activity, positive = more growth | AID 2326 | actives 0.4% (n = 270,000) | S. cerevisiae slowed by influenza A NS1, growth recovery by OD600; active means well fitted rising curve with a large enough effect; inconclusive means small, poorly fitted or top-dose-only effect; inactive means no such curve, though single readings can be large or run the other way; also: nearly all actives have a fitted effect of over 50% in size
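OD600 was taken as the measure of yeast growth restored by compound in an NS1-expressing S. cerevisiae strain. Cells had been washed out of glucose medium and diluted 1:100 into galactose -URA medium, pH 6.0.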
MARV entry inh: blocks Marburg virus binding to or entry into cells; Marburg virus pseudotyped entry inhibition, cell reporter; control for the full effect not named in the record; about a third of the inactives were read at about 46 µM; Potency, µM (titrated, usually from 37.8 µM), without a hit: top-dose activity change, negative = inhibition, hits mostly inhibitors; actives 1.8% (n = 300,000); active = well fitted inhibition curve with a large enough effect; inconclusive = small, poorly fitted or top-dose-only effect, or effect the other way; inactive = flat fitted curve, though single readings scatter; tested in HEK293 cells; about a fifth of its hits are not listed in these tables; also: % is scaled to controls: 0 for no effect and ±100 for the full control effect; luciferase read-out
Cruzain Triton: cruzain (T. cruzi) inhibition with detergent | P25779 | purified cruzain, Z-FR-AMC fluorescence, 0.01% Triton | Potency, µM, for the others: max response, negative = inhibition, most hits filed as inhibitors | actives 0.43% (n = 200,000);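 also: plate controls were neutral wells for no effect and buffer without enzyme for full effect; nearly all actives have a fitted effect of over 40% in size; top concentration of the series not given in the record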
Target sequence (P25779 123-467 limits assumed): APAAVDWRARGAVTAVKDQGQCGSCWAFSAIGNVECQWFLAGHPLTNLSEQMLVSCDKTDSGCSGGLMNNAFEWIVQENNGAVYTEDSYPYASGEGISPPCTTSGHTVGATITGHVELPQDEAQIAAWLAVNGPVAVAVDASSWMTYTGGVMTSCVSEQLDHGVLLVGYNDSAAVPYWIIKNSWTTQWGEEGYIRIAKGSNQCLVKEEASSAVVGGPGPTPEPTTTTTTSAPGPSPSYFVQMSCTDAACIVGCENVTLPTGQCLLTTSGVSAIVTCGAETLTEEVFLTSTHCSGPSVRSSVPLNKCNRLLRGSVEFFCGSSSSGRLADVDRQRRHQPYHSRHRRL
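Purified cruzain (1.5 nM final) was preincubated with compounds for 15 min at room temperature in 100 mM sodium acetate pH 5.5, 5 mM DTT, 0.01% Triton X-100. Reaction started with 2 uM Z-FR-AMC; AMC fluorescence change over 60 s gave activity.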
Cruzain noTriton: cruzain (T. cruzi) inhibition without detergent. P25779. purified cruzain, Z-FR-AMC fluorescence, no detergent. Potency, µM, for the others: max response, negative = inhibition, hits mostly inhibitors. actives 2.3% (n = 200,000);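 also: plate controls were enzyme without inhibitor for no effect and buffer without enzyme for full effect; nearly all actives have a fitted effect of over 40% in size; top concentration of the series not given in the record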
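Detergent-free condition (0.00005% Triton X-100) in acetate buffer pH 5.5 with DTT. 1.5 nM enzyme and compound were pre-mixed 15 min, then 2 uM Z-FR-AMC substrate added; reaction progress from fluorescence change between first and third reads (60 s).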
SARS PLpro yeast: SARS-CoV PLP inhibition in yeast; S. cerevisiae expressing SARS-CoV PLpro, growth rescue; control for the full effect not named in the record; Potency, µM (highest dose often 32.9 µM), for inactives: at the top dose activity, positive = growth rescue; actives 0.19% (n = 330,000); active means well fitted rising curve with a large enough effect; inconclusive means small, poorly fitted or top-dose-only effect; inactive means no such curve, though single readings can be large or run the other way; also: 0% is about no effect; nearly all actives have a fitted effect of over 55% in size; growth read by luminescence after 48 h
2A StopGo: FMDV 2A StopGo reporter, luciferase signal; human cells with a luciferase reporter of 2A StopGo recoding; control for the full effect not named in the record; Potency, µM (top dose mostly 57.9 µM), without a hit: top-dose signal change, negative = less light; actives 1.2% (n = 410,000); active = well fitted falling curve with a large enough effect; inconclusive = small, poorly fitted or top-dose-only effect; inactive = no such curve, though single readings can be large or run the other way; tested in HEK293T cells; also: % is scaled to controls: 0 for no effect and ±100 for the full control effect; nearly all actives have a fitted effect of over 45% in size; luciferase light after 4 h
Numbers without * were called inactive; u = inconclusive; x = no result given; & = joins results of further samples; [ ] = another dose, or the depositor's remark. Unless noted, calls follow the shape of the dose curve; as a rule, active = well fitted curve in the direction sought with a large enough effect; inconclusive = small, poorly fitted or top-dose-only effect, or another doubt; inactive = no such curve, though single readings can be large; an effect the other way counts as inactive or inconclusive. Potency is read from the fitted curve at half-maximal effect.

mol	LASV entry inh	RE007 growth inh	NS1 inh	MARV entry inh	Cruzain Triton	Cruzain noTriton	SARS PLpro yeast	2A StopGo
CC1CCN(C(=O)c2cc3ccccc3c(=O)o2)CC1	0%	1%	11%	u	-3.1%	-6%	2%	33%[activator]
COc1cccc(CN(C)Cc2nc(Cc3ccccc3Cl)no2)c1	-1%	-7%	-11%	14%[46.1 µM]	x	x	0%	-25%
CCN(CC)C(=O)N1CCc2ccccc21	11%	4%	2%	0%	x	x	0%	0%
Cc1ccc(NC(=O)CCN2C(=O)c3ccccc3C2=O)cc1C	x	5%	-38%	x	x	x	1%	12%
CCOc1ccc(-c2cc3cc(OC)c(OC)cc3c(C)n2)cc1	-22%	-8%	x	1%[46.1 µM]	x	x	11%	-7%
OC(COCC(F)(F)C(F)(F)C(F)(F)C(F)F)Cn1c2ccccc2c2ccccc21 (stereo not given)	u	u	-78%	u	-1.2%	u	-80%	-36%
O=C(CSc1nnc(NCc2ccccc2)s1)NC1CCS(=O)(=O)C1 (stereo not given)	x	-4%	-48%	x	x	x	0%	3%
COc1ccc(S(=O)(=O)Cc2ccc(C(=O)N3CCc4ccccc4C3)o2)cc1	x	-2%	-57%	-1%	-2.4%	0%	-4%	-9%
COc1cccc(CN(C)CC(=O)Nc2cccc(S(N)(=O)=O)c2)c1OC	-5%	10%	1%	-1%	-0.9%	-14%	-1%	3%
COc1ccc(CCNC(=O)c2ccc(Cn3c(=O)c4cccn4c4cccnc43)cc2)cc1OC	22%[46.1 µM]	x	x	x	-1.7%	-9%	x	-7%
COc1ccc(NC(=O)Cn2nc3c(cc2=O)CCCC3)cc1Cl	14%[46.1 µM]	x	x	x	-3.8%	2%	x	-9%
Cc1cccc(-n2ncc3c(N4CCCc5ccccc54)ncnc32)c1	u	1%	2%	u	-29%	-8%	-16%	15%
CCOc1cc(/C=N/NC(=O)CSc2nnc(C)s2)ccc1OCc1ccccc1Cl	x	-16%	10%	8%	-2.1%	14%	-2%	-18%
COC(=O)c1ccccc1NC(=O)CSc1nnc(CNS(=O)(=O)c2ccc(C)cc2)n1C	8%	-1%	-6%	1%	4.3%	23%	3%	-13%
CCN(CC)c1ccc(C=Nc2cccnc2Cl)c(O)c1	x	1%	7%	x	x	x	-4%	33%[activator]
COc1ccc(Cc2nnc(NC(=O)Cc3cccs3)s2)cc1OC	-6%	14%	-3%&19%	u	-14%	-7%	-15%	-22%
CCN(C(=O)COC(=O)C(O)(c1ccccc1)c1ccccc1)c1c(N)n(Cc2ccccc2)c(=O)[nH]c1=O	-10%	3%	x	-7%[46.1 µM]	x	x	-1%	-7%
O=C(NC1CCCCC1)c1ccc(-c2cccc([N+](=O)[O-])c2)o1	x	-7%	-10%	x	x	x	-13%	53%[activator]
COc1cc2nc3c4ccccc4n(CC#N)c3nc2cc1OC	x	x	-12%	x	0.5%	4%	3%	x
CCSc1nnc(NC(=O)c2ccccc2C)s1	x	-27%	x	-18%[46.1 µM]	x	x	0%	51%[activator]

Continued.
mol	LASV entry inh	RE007 growth inh	NS1 inh	MARV entry inh	Cruzain Triton	Cruzain noTriton	SARS PLpro yeast	2A StopGo
CCCCOc1ccc(/C=C/C(=O)Nc2ccc(C(N)=O)cc2)cc1	1%	12%	11%	-1%	-3.0%	16µM*	1%	-12%
O=C(O)c1ccccc1C(=O)c1ccc(Oc2ccccc2)cc1	-1%	8%	7%	20%	-3.3%	-7%	0%	-5%
c1ccc(C(c2ccccc2)N2CCN(c3ccc4ccccc4n3)CC2)cc1	-20%	-4%	-6%	7%[46.1 µM]	-3.8%	u	-2%	-15%
CCCC(=O)Nc1ccc(NC(=O)c2cccc(OC)c2)cn1	4%	5%	11%	9%	x	x	2%	0%
COC(=O)C1=C(C)N(CC(C)C)C(=O)/C1=C\c1cccs1	-1%	-8%	5%	-5%	-5.4%	-12%	5%	0%
CC(=O)Nc1nc(C2COc3ccccc3O2)cs1 (stereo not given)	u	u	2%	u	7.7%	-4%	-8%	x
COC(=O)c1ccc(S(=O)(=O)NC(C)(C)C)n1C	-2%	11%	3%	u	x	x	0%	-16%
O=S(=O)(c1ccc(F)cc1)N(Cc1nc(-c2ccc(Cl)cc2)no1)C1CCCCC1	-20%[46.1 µM]	x	x	11%[46.1 µM]	-3.1%	5%	x	-19%
Cc1ccc(Cn2c(NS(=O)(=O)c3ccccc3)nc3ccccc32)cc1	3%	9%	11%	-23%	2.2%	-29%	u	67%[activator]
CCC(C)(C)n1nnnc1C(c1ccc2ncccc2c1)N1CCN(c2ccc(O)cc2)CC1 (stereo not given)	1%	5%	5%	20%[46.1 µM]	x	x	0%	-4%
CCNC(=S)NNC(=O)CCc1nc2cc(Cl)ccc2n(Cc2ccccc2)c1=O	x	0%	2%	1%[46.1 µM]	x	x	-1%	2%
Cc1nonc1C(=O)N/N=C/c1ccc(O)c(O)c1	u	u	5%	0%	-15%	-8%	27%	13%
N#Cc1ncc(-c2ccc3c(c2)OCCOCCOCCOCCO3)nc1C#N	u	6%	-4%	u	-9.6%	3%	24%	40µM*
S=c1[nH]cc(-c2ccccc2)n1-c1ccccc1Cl	-9%	0%	2%	u	0.5%	-8%	17%	0%
O=C(CSc1nnc(CNC(=O)c2ccccc2)o1)Nc1ccc2c(c1)OCCO2	4%	-15%	7%	0%	x	x	1%	-2%
COc1ccc(CNC(=O)c2onc(C)c2Cl)cc1	x	2%	-7%	x	-3.0%	2%	1%	-3%
Cc1ccc(-c2onc3ccc(Br)cc23)cc1	8%[46.1 µM]	-6%	1%	18%[46.1 µM]	x	x	-2%	-8%
Cc1ccc(SCc2nc(-c3cccnc3)no2)cc1	9%	-14%	-13%	-30%	-2.9%	1%	-6%	-38%
Cc1ccc(C(=O)COC(=O)c2ccc3c(c2)C(=O)N(c2cccc4ncccc24)C3=O)cc1	u	-5%	13%	u	1.3%	-18%	28%	u
CCCOc1ccc2oc(=O)c3c(c2c1)CCCN3C(=O)CN1CCN(c2ncccn2)CC1	-29%	0%	-48%	-2%&5%	-5.2%	u	0%	-16%

Additional records follow:
mol	LASV entry inh	RE007 growth inh	NS1 inh	MARV entry inh	Cruzain Triton	Cruzain noTriton	SARS PLpro yeast	2A StopGo
CC(=O)Nc1ccc2nc(-c3cccn3C)[nH]c2c1	-4%[46.1 µM]	-3%	1%	4%[46.1 µM]	x	x	-5%	21%
CCCCOC(=O)c1ccc(Nc2nc3ccccc3c3nnc(C)n23)cc1	4%[46.1 µM]	x	x	x	-3.4%	u	x	6%
CCOC(=O)C1=C(C)NC(=O)NC1c1ccccc1OCc1c(F)cccc1Cl (stereo not given)	u	-14%	15%	u	-0.9%	u	7%	u
S=C1NCCc2ccccc2C1c1ccccc1Cl (stereo not given)	-5%	4%	3%	-36%	u	u	-35%	-3%
CC(=O)Nc1ccc(S(=O)(=O)NCCC(=O)OCc2nnc(-c3ccccc3)o2)cc1	u	-4%	x	28%	x	x	-1%	7%
O=C(NCc1ccc(Cl)c(Cl)c1)c1ccc2c(c1)OCO2	7%[46.1 µM]	-5%	-25%	u	x	x	-12%	-4%
Cc1ccc(-n2c(SCC(=O)N3Cc4ccccc4CC3C(=O)O)nnc2-c2cccnc2)c(C)c1 (stereo not given)	-11%[46.1 µM]	2%	-7%	5%[46.1 µM]	-0.1%	-6%	11%	22%
CCC(C)C(NC(=O)C(C)NC(=O)CNC(=O)OC(C)(C)C)C(N)=O (stereo not given)	21%[46.1 µM]	12%	0%	u	x	x	-1%	-13%
Cc1cc(Cl)ccc1OCCCC(=O)NCc1cccs1	u	4%	-14%	u	-7.2%	6%	-12%	-15%
O=C(CCN1C(=O)c2ccccc2C1=O)NCc1ccco1	8%	-11%	9%	0%	-1.2%	-5%	0%	x
CNC(=S)N(CCO)Cc1cc2cc3c(cc2[nH]c1=O)OCCO3	x	1%	10%	x	x	x	0%	-2%
CC(=O)c1ccc2c3c(cccc13)C(=O)N(CCc1ccccc1)C2=O	x	8%	u	x	x	x	1%	31%[activator]
COc1ccc(S(=O)(=O)N2CCC(C(=O)Nc3ccc(S(=O)(=O)N4CCCC4)cc3)CC2)cc1OC	u	0%	x	u	x	x	-3%	0%
CCn1c(SCC(=O)NC(=O)Nc2ccc3c(c2)OCCO3)nnc1-c1cccs1	0%	-7%	-31%	-5%	-11%	-7%	3%	27%
CCCCc1nc2cc(C(=O)NCc3nccn3CC)ccc2o1	x	-10%	-3%	x	x	x	3%	10%
O=C(CSc1nnc2ncccn12)Nc1cccc2ccccc12	21%[46.1 µM]	-16%	-3%	12%[46.1 µM]	x	x	-4%	-6%
O=C(CCSCc1ccc(Cl)cc1)NCc1ccco1	1%	-4%	x	-1%[46.1 µM]	x	x	-1%	0%
O=C(Cc1ccc([N+](=O)[O-])cc1)N1CCc2ccccc2C1	5%	-1%	1%	6%[46.1 µM]	-8.4%	-9%	-6%	12%
Cc1ccc(NS(=O)(=O)c2cc(C(=O)N(C)C)ccc2C)cc1C	-10%	-3%	0%	-14%[46.1 µM]	x	x	1%	75%[activator]
CC(C)(C)[C@@H]1C=C(C(N)=O)O[C@H](OCc2ccc(CO)cc2)C1	x	4%	-1%	x	x	x	0%	-29%

(listing goes on)
mol	LASV entry inh	RE007 growth inh	NS1 inh	MARV entry inh	Cruzain Triton	Cruzain noTriton	SARS PLpro yeast	2A StopGo
COCc1cc(C)nc2sc(C(=O)Nc3ccccc3O)c(N)c12	2%[46.1 µM]	x	x	u	-3.7%	3%	x	21%
CC(C)COc1ccc(C(=O)Nc2nnc(S(=O)(=O)N(C)Cc3ccco3)s2)cc1	23%[46.1 µM]	x	x	x	-5.3%	u	x	22%
Cc1cccc(NC(=S)NNC(=O)c2ccc(Br)o2)c1	6%	15%	-31%	-2%	-0.7%	3%	-4%	38%[activator]
O=C(CSc1nnc2ccccn12)NCCc1ccc(F)cc1	15%	-2%	x	1%	x	x	-2%	45%[activator]
CCOC(=O)C1(C)NC(c2cccs2)C2C(=O)N(c3ccc(OC)cc3)C(=O)C21 (stereo not given)	0%	-4%	-4%	u	x	x	1%	9%
COc1cc(NC(=O)CSc2nccc(C)n2)c(C(=O)O)cc1OC	u	-10%	12%	-15%	2.0%	-3%	11%	-16%

Bioassay records: PubChem BioAssay, National Center for Advancing Translational Sciences (NCATS)
